Source: PubChem BioAssay (ICCB-Longwood Screening Facility, Harvard Medical School)
E coli growth – E. coli growth inhibition, primary screen, OD600; OD600 absorbance (test concentration not listed); 330,000 compounds, 0.21% hits; AID 1053175, 2014; Escherichia coli growth, 23 h; hits give low values;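 active = OD600 absorbance below the run mean of sample wells minus 3.6 SD, in any replicate, cut at about 0.56 in these data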;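 also: stock transfer was 300 nL into about 60 µL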
UCH37 DUB inh – inhibitors of human UCH37 deubiquitinase, primary screen, biochemical, Ub-AMC cleavage, fluorescence; inhibition, % (test concentration not listed); AID 588478, 2011; 330,000 compounds, 0.33% hits; purified proteasome/UCH37;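 active = mean of two replicates above 20%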;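 also: 0% = compound-free wells with enzyme and 100% = wells lacking proteasome; stock transfer was 100 nL into about 20 µL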
Target sequence (Q9Y5K5 whole entry, looked up): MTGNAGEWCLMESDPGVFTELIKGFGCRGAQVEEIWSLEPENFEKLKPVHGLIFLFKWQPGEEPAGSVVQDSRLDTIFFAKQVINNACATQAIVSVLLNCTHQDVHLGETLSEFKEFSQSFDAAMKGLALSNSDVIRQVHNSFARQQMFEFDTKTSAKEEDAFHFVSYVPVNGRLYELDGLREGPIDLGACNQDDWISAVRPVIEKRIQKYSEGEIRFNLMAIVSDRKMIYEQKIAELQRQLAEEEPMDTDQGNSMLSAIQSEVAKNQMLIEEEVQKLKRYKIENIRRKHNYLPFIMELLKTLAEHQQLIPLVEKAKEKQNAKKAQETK
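Material: human UCH37 enzyme supplied as purified proteasome complex. Measure: % inhibition of Ub-AMC cleavage fluorescence. Medium: pH 7.4 Tris-HCl (50 mM) with ovalbumin, ATP-MgCl2, DTT. Times: 30 min preincubation with enzyme, 25 min cleavage at room temperature. Detection: AMC fluorescence intensity at 355/460 nm.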
Active calls of the source: *. Not all compounds are listed; the hit share may differ from the screen's.

Screens in order: E coli growth	UCH37 DUB inh
N#Cc1c(N=Cc2ccc(Br)s2)sc2c1CCC2
  0.75	-0.4
Clc1ccc(CONC=Nc2ncnc3sccc23)cc1
  0.754	1.4
O=C(Cc1ccccc1[N+](=O)[O-])NN=Cc1cccnc1
  0.676	-0.9
Cc1cccc(NN=Cc2ccc(C)s2)c1
  0.671	5.2
CN(C)c1ccc(C=NNC(=O)c2ccc3c(c2)OCO3)cc1
  0.673	-8.8
Cc1cc(C=NNC(=O)c2cccs2)c(C)n1-c1cnccn1
  0.685	15.5
COc1cccc(C=NNC(=O)c2[nH]c(C)c(C(=O)NN=Cc3cccc(OC)c3O)c2C)c1O
  0.677	-19.4
COc1ccc(NC(=O)c2cc3ccccc3oc2=NNS(=O)(=O)c2ccc(C)cc2)cc1
  0.73	4.7
CC(C)(C)C(=O)ON=C(N)Cc1ccc(-c2csnn2)cc1
  0.689	3.7
O=S1(=O)CCC(=NNc2ccccn2)c2cc(F)ccc21
  0.719	10.6
CN(C)c1ccc(C=NNC(=O)c2ccnn2C)cc1
  0.725	15.4
O=C(Cn1cc(C(F)(F)F)ccc1=O)NN=Cc1ccc(F)cc1
  0.677	3.8
CC(/C=C/C=C/c1ccccc1)=NNC(=O)c1cccnc1
  0.64	24.3*
COc1cc(C=NNC(=O)Cn2nnc3ccccc32)cc(OC)c1OC
  0.782	4.7
CC(CC(=O)Nc1ccc(C)c(Cl)c1)=NNC(=O)Cc1ccccc1
  0.68	3.2

Looked up by compound from the list above (5):
Screens in order: E coli growth	UCH37 DUB inh
Clc1ccc(CONC=Nc2ncnc3sccc23)cc1
  0.754	1.4
COc1cccc(C=NNC(=O)c2[nH]c(C)c(C(=O)NN=Cc3cccc(OC)c3O)c2C)c1O
  0.677	-19.4
COc1cc(C=NNC(=O)Cn2nnc3ccccc32)cc(OC)c1OC
  0.782	4.7
CC(CC(=O)Nc1ccc(C)c(Cl)c1)=NNC(=O)Cc1ccccc1
  0.68	3.2
O=C(Cn1cc(C(F)(F)F)ccc1=O)NN=Cc1ccc(F)cc1
  0.677	3.8

(continued)
Screens in order: E coli growth	UCH37 DUB inh
Cc1nn(C)c(C)c1C=NNC(=O)CCn1cc([N+](=O)[O-])cn1
  0.632	1.6
Fc1c(F)c(F)c(C=NNC(=S)Nc2cccnc2)c(F)c1F
  0.696	0.9
COc1ccc(C=NNC(=O)CNC(=O)c2ccc(S(=O)(=O)N3CCCC3)cc2)c(OC)c1
  0.725	5.3
COc1cc(C(=O)NN=Cc2coc3ccc(Cl)cc3c2=O)ccc1O
  0.682	-9.2
COc1ccc(NC(=O)CC(C)=NNC(=O)COc2ccc(OC)cc2)cc1
  0.661	-0.2
O=C(O)c1ccc(C=NNc2ccc(F)cc2F)cc1
  0.706	11.1
CC(C)(C)C(=O)ON=C1CCS(=O)(=O)c2sccc21
  0.658	5.3
COc1ccccc1N1CCN(N=Cc2cccnc2)CC1
  0.665	0.7
CCN(CC)c1ccc(C=NNC(=O)CNC(=O)c2ccccn2)cc1
  0.733	-129.6
CC(=NNC(=S)NCc1ccccc1)c1ccco1
  0.692	0.0
CCOC(=O)C1=C(C)N=c2sc(=Cc3cccc([N+](=O)[O-])c3O)c(=O)n2C1c1cc(OC)c(OC)c(OC)c1 (stereo not given)
  0.682	11.3
C(=Nn1cnnc1)c1cccc(Oc2ccccc2)c1
  0.653	-0.3
Cc1ncc(CO)c(C=NNC(=S)Nc2ccc(F)cc2)c1O
  0.701	-73.5
Cc1[nH]c2ccccc2c1C=NNC(=O)CNC(=O)COc1ccccc1
  0.726	2.8
CCCOc1cccc(C=NNC(=O)c2csc(C)c2C)c1
  0.733	-0.4
COC(=O)Cc1cc(=O)[nH]c(N=C(N)Nc2ccc(C(C)C)cc2)n1
  0.665	1.2
CCOC(=O)c1oc2ccc(C=NO)c(Cl)c2c1C
  0.682	1.8
O=C1CCCCC1=NNc1ccc(OCc2ccccc2)cc1
  0.658	1.7
NC(=O)CN1C(=O)C(=c2sc3nc(=O)c(Cc4ccccc4)nn3c2=O)c2ccccc21
  0.68	5.3
C=CC[N+](C)(C)CCCNC(=O)C=NO
  0.684	5.3
O=C(O)COc1ccc(C=NNC(=O)c2cn(-c3ccccc3)nc2-c2ccccc2)cc1
  0.681	7.9
Cc1cccc(COc2ccc(C=NNC(=O)c3nnn(-c4nonc4N)c3CN3CCCCC3)cc2)c1
  0.736	-2.0
O=C(NN=Cc1ccc([N+](=O)[O-])o1)c1cncc(Br)c1
  0.512	12.5
CC(=NNC(=O)c1ccncc1)C1=C(O)CC(C)(C)CC1=O
  0.664	3.4
O=C(NN=Cc1cccnc1)NC12CC3CC(CC(C3)C1)C2
  0.684	5.6
COc1ccc(OC)c(C=NNC(=O)c2ccc(Cn3cc([N+](=O)[O-])cn3)o2)c1
  0.689	-34.0
CCCCOc1ccc(Br)cc1C(C)=NNC1=NCCN1
  0.622	1.6
CCOC(=O)NN=Cc1ccc(OCCSc2ccc(Cl)cc2)c(OC)c1
  0.692	2.0
CC(CC(=O)N(C(C)C)C(C)C)=NNC(=O)COc1ccc(Cl)cc1Cl
  0.688	5.0
Cc1scc(C(=O)NN=Cc2ccc(OCC(C)C)cc2)c1C
  0.689	3.3
CCC1CC(C(C)=NNC(N)=O)OC1=O (stereo not given)
  0.665	-0.6
CCOc1ccc(-c2c(C(=O)NN=Cc3cccc(Br)c3)nnn2-c2nonc2N)cc1
  0.717	4.1
CC(=NNC(=O)CCc1ccc(S(=O)(=O)N2CCOCC2)cc1)c1ccc(Br)cc1
  0.677	-1.3
Cc1ccc[n+](-c2[nH]c(=O)sc2C=N/N=C(\[O-])CCn2c3ccccc3c3ccccc32)c1
  0.7	2.5
Cc1ccc(S(=O)(=O)NN=C(c2ccccc2)C2CC2)cc1
  0.722	5.8
COc1ccc(CC(=O)Nc2ccc(C(C)=NNC(=O)c3ccc(OC)cc3OC)cc2)cc1
  0.692	-32.7
CCOC(=O)c1c(N=Cc2cc(C)ccc2O)sc2c1CCN(C)C2
  0.647	3.8
Cc1ccc(S(=O)(=O)NN=Cc2ccc3c(c2)OCO3)cc1
  0.668	7.0
COc1cccc(C=NNC(=O)c2ccc(-n3cnnn3)cc2)c1
  0.674	1.4
CCCCCCCCCCCCCCCC[n+]1ccc(C=NO)cc1
  0.399*	53.0*
CCn1nc(C)c(C=NNC(=O)c2ccc3c(c2)OCO3)c1C
  0.751	2.0
Cc1ccc2nc(Cl)c(C=NNc3nc(C)cc(C)n3)c(=O)n2c1
  0.657	-11.3
CC(=NNC(=O)CC(C)C)c1ccc(N2CCCCC2)cc1
  0.665	-3.7
CCOP(=O)(OCC)C(=NOC(=O)c1cccc([N+](=O)[O-])c1)C(N)=O
  0.694	-0.1
COc1ccc(C=NNC(=O)CN2CCCC2)cc1
  0.683	5.4
CC1=CCCC2C(C=C(C)CC1)OC(=O)C2CN1CCCCC1 (stereo not given)
  0.678	0.6
COc1cc(C=NO)c(Br)cc1OCC(=O)Nc1ccccc1C
  0.664	0.6
Cc1ccc(C(=O)ON=Cc2ccc(N(C)C)cc2)cc1
  0.728	-58.9
CCOC(=O)Cn1cc(C=NNC(=O)c2ccc(C#N)cc2F)c2ccccc21
  0.724	8.0
CCC(=NNC(=O)c1ccc(CN(C)S(=O)(=O)c2ccc(C)cc2)cc1)c1ccc(OC(F)F)cc1
  0.671	-0.7
Cc1ccc(S(=O)(=O)N=C(c2ccccc2)N(C)S(=O)(=O)c2ccccc2)cc1
  0.701	3.8
CC(=NNC(=O)c1ccccc1F)c1ccccn1
  0.646	-1.3
O=C(NN=Cc1c[nH]c2ccccc12)c1ccn(Cc2ccc(Cl)cc2Cl)n1
  0.732	-6.4
Oc1ccc(C=NNc2ncc(Br)cn2)c(O)c1
  0.581	3.7
CN(C)C(=NS(=O)(=O)c1ccc(F)cc1)c1ccccc1
  0.63	0.3
COc1cccc(C=NNS(=O)(=O)c2ccccc2)c1OC
  0.7	-0.4
Cc1ccc(C=NNC(=O)CNC(=O)c2cccs2)cc1
  0.648	0.3
CN(C)Cc1c(C(=O)NN=Cc2cccc(OCc3c(F)cccc3Cl)c2)nnn1-c1nonc1N
  0.728	2.7
CC1(C)Oc2ccc3ccc(=O)oc3c2C(C=NO)C1=O (stereo not given)
  0.702	-11.8
O=C1NCC(c2ccccc2)C1C(=O)NN=Cc1ccc(-c2ccc(Cl)c(Cl)c2)o1 (stereo not given)
  0.693	2.3

Additional entries:
Screens in order: E coli growth	UCH37 DUB inh
COc1ccc(C=NNC(=S)Nc2cc(S(=O)(=O)N3CCOCC3)ccc2N2CCOCC2)cc1O
  0.681	3.9
CC(=NNC(=O)c1cccc(C)c1)c1c(O)cc(C)oc1=O
  0.689	7.7
O=C(CN1CCSCC1)NN=Cc1ccc(Cl)cc1
  0.684	0.4
Cc1cccc2cc(C=NNc3ccc(C(=O)O)cc3)c(Cl)nc12
  0.693	-13.5
CC(C)/C(C=O)=C(\NC1CCCCC1)c1ccccc1
  0.684	3.7
O=S1(=O)N=C(NN=Cc2ccco2)c2ccccc21
  0.674	18.3
CC(=NNC(=O)c1ccn(C)n1)c1ccc(NC(=O)C2CCCC2)cc1
  0.678	1.2
CCCc1ccc(S(=O)(=O)NN=C(C)c2ccc3c(c2)OCO3)cc1
  0.708	6.1
COc1cccc(OCCn2c(C)c(C=Nn3cnnc3)c3ccccc32)c1
  0.761	4.5
CC(=NNC(N)=O)c1c(F)cccc1F
  0.668	1.9
COc1cc(C=NNC(=O)c2ccc3ccccc3c2)ccc1Oc1ccc([N+](=O)[O-])cn1
  0.698	6.5
Cc1ccc(CN2CCN(CC(=O)NN=Cc3ccc(C)o3)CC2)cc1
  0.613	3.2
CC(=NN=C(N)N)c1ccc(Cl)c(Cl)c1
  0.576	11.8
Cc1cc(=O)[nH]c(NN=Cc2c(C)oc3ccccc23)n1
  0.706	-2.1
Cc1nc2ccccc2c(=O)n1N=Cc1cn[nH]c1-c1ccccc1
  0.71	7.2
COc1cc(C=NNc2nc(C)cc(C)n2)ccc1OC(=O)c1ccco1
  0.702	7.8
Cn1cccc1C=NNC(=O)Cn1cnc2ccccc21
  0.701	3.7
Cc1ccnc(NN=Cc2ccco2)n1
  0.685	5.2
CCOc1cc(C=NNC(=O)c2cc(-c3ccccc3)nc3ccccc23)ccc1O
  0.66	-0.1
O=[N+]([O-])c1ccccc1/C=C/C=Nn1c(-c2ccccc2)n[nH]c1=S
  0.679	4.1
Cc1nn(-c2ccccc2)c(C)c1C=NNC(=O)c1cc(-c2ccc(Cl)s2)[nH]n1
  0.691	2.7
Cc1cc(C)n(C(=O)C(C#N)=NNc2ccccc2[N+](=O)[O-])n1
  0.668	8.3
COc1ccc2cc(C=NNC(=O)c3ccc(CN(c4ccc(C)c(C)c4)S(C)(=O)=O)cc3)c(Cl)nc2c1
  0.632	-25.8
CCCCCCC(=NO)c1ccccn1
  0.709	1.6
CC(=NNC(=O)c1nn(C)c(C)c1Br)c1ccc(NC(=O)c2ccccc2F)cc1
  0.644	-213.2
CCOC(=O)c1c(N=CC2C(=O)CC(C)(C)CC2=O)sc(C)c1C
  0.694	-94.7
CC(C)c1c(C(=O)NN=Cc2c[nH]c3ccccc23)nnn1-c1nonc1N
  0.655	-7.3
O=C(ON=C1CCCc2occc21)c1ccccc1
  0.779	3.3
CC(C)(C=NO)/[N+]([O-])=C/C=[N+](\[O-])C(C)(C)C=NO
  0.712	6.7
COc1ccc(-c2nn(-c3ccccc3)cc2C=NNC(=S)NC(C)C)cc1OC
  0.679	-0.8
CCN(CC)S(=O)(=O)c1cccc(-c2n[nH]c(=S)n2N=Cc2ccc(OC(F)F)cc2)c1
  0.724	5.5
Cc1onc(-c2ccccc2)c1C(=O)NN=Cc1cc(Br)c(O)c(Br)c1
  0.694	-20.5
Cc1ccc(C=NNC(=S)NCCc2ccccc2)s1
  0.681	-49.4
Clc1ccccc1-c1ccc(C=NNc2nncc(-c3ccccc3)n2)o1
  0.678	8.2
Oc1ccc(Br)cc1C=NN1CCN(Cc2ccccc2)CC1
  0.748	7.1
CCOc1ccc(C(=NO)C(C)NO)cc1 (stereo not given)
  0.687	2.3
COc1ccc(C)cc1-n1nnnc1SCC(O)=C(C#N)c1nc2ccccc2[nH]1
  0.692	2.7
COC(=O)c1ccc(C=NN2CCN(Cc3ccccc3Cl)CC2)cc1
  0.644	6.2
COc1cc(C=NNC(=O)c2ccc(Cn3cc([N+](=O)[O-])cn3)o2)cc(Br)c1O
  0.647	11.9
O=C(NN=Cc1cc(Cl)ccc1O)c1ccncc1
  0.646	2.5
CC(/C=C/c1ccc2c(c1)OCO2)=NNC(=O)c1ccccc1
  0.647	3.2
Cc1nc(N)sc1C(=O)NN=Cc1ccc([N+](=O)[O-])cc1
  0.673	4.5
Cc1cc(Cl)ccc1OCC(=O)NN=C1CC2C=CCC12 (stereo not given)
  0.697	3.8
CC(=NOC(=O)c1ccc(F)cc1)c1sc(-c2ccc(Cl)cc2)nc1C
  0.724	-118.6
Cc1cc(C)cc(CSCC(=O)NN=Cc2ccc(OCC(=O)NCc3ccco3)cc2)c1
  0.737	3.6
O=C(NN=Cc1ccco1)c1ccc2nc[nH]c2c1
  0.708	6.4
COc1cc(C=NO)ccc1Oc1cnccn1
  0.634	6.0
CC1=CC(=NOS(=O)(=O)c2ccccc2)C(C)=CC1=O
  0.66	4.1
